Screening results deposited in PubChem by Johns Hopkins Ion Channel Center.
KCNQ2 block = KCNQ2 potassium channel inhibitors, primary screen, cell-based, CHO-K1, FluxOR thallium flux, B-score (AID 2156); Potassium voltage-gated channel subfamily KQT member 2 (Rattus norvegicus), O88943; 20 min; hits give low values; only compounds with negative scores are shown here; some inactives read as strong as hits; B-score at 10 µM; 310,000 compounds, 1.1% hits;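 active means fluorescence ratio B-score at most minus 3 library SDs, with starting brightness B-score within 2 library SDs, cut at about -5.5 in these data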
Target sequence (O88943 whole entry, looked up): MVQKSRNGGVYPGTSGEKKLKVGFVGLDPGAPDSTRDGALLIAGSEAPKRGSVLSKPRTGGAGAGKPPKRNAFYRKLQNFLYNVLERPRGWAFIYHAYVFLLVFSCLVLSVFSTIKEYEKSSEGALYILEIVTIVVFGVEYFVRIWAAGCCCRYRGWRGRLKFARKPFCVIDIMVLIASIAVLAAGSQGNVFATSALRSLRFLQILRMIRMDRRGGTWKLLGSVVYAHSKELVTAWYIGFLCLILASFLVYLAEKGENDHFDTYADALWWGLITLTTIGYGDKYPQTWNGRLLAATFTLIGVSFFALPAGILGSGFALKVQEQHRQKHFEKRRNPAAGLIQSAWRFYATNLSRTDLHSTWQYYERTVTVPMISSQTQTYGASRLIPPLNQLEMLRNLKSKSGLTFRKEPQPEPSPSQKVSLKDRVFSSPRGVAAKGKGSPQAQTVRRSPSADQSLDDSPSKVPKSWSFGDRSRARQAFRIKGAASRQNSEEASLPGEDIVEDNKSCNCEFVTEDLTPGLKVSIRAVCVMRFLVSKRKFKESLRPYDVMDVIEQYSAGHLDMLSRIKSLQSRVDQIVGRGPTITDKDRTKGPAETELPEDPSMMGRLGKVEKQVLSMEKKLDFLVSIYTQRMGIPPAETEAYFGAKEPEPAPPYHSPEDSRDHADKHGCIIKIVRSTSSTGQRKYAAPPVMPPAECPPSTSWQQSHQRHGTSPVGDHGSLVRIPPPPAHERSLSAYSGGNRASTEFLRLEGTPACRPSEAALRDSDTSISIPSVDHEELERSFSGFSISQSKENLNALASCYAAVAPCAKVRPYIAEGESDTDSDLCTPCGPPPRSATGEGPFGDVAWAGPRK
KCNQ2 block baseline = also measured in KCNQ2 block; calls as there; B-score; measured here: initial fluorescence intensity artifact check;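 brightness before thallium and not channel activity; 0 = typical well and far values either way flag optical interference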
* marks the source's active call; other numbers are inactive results; i = inactive. Some of the compounds tested, so the mix of outcomes need not match the whole.

Results follow in this order: KCNQ2 block | KCNQ2 block baseline
CCc1nnc(NC(=O)CSc2nc3[nH]ncc3c(=O)[nH]2)s1
 : i | 1.4
O=C(NCC1CCCO1)Nc1cccc(Cl)c1 (stereo unspecified)
 : i | -0.46
CCC1=Nc2cc(C(=O)NCCCOC(C)C)ccc2Sc2ccccc21
 : i | -0.14
Cc1ccc(S(=O)(=O)Nc2cccc(C(=O)NCC(c3ccccc3)N(C)C)c2)cc1F (stereo unspecified)
 : i | -0.83
COc1cccc(C(=O)N(Cc2ccc3c(c2)OCO3)Cc2nc3ccccc3c(=O)[nH]2)c1
 : i | -0.85
CNC(=O)CCCCC(=O)N/N=C/c1ccc(Cl)cc1Cl
 : i | 3.2
CCCn1c(=O)c(C(=O)Nc2cccc(C)n2)c(O)c2ccccc21
 : i | 0.15
O=C(CSc1nnc(-c2ccccc2)c(-c2ccccc2)n1)Nc1ncc(Cl)cc1Cl
 : i | 1.2
N/C(=N\c1nc2ccccc2o1)NC(=O)c1ccccc1
 : i | -0.81
Cc1nn(S(=O)(=O)c2ccccc2)c(C)c1Sc1ccc([N+](=O)[O-])cc1
 : i | 0.38
O=C(N/N=C/c1ccco1)c1cccc(S(=O)(=O)Nc2ccccc2Cl)c1
 : i | -0.45
COc1cc(C=O)ccc1OCCCOc1ccccc1[N+](=O)[O-]
 : i | -1.3
COc1ccccc1CNC(=O)N1CCN(c2ccccc2)CC1
 : i | 1.1
COc1ccc(C(OC(=O)c2ccco2)C(=O)NC2CCCCC2)cc1OC (stereo unspecified)
 : i | -0.37
COc1ccc2c(c1)C(C)(CCN)C(=O)N2C (stereo unspecified)
 : i | 1.6
CN1CC=C2C(C#N)=C(N)C(C#N)(C#N)C(c3ccsc3)C2C1 (stereo unspecified)
 : i | 4.3
CC(OC(=O)c1oc2ccccc2c1COc1ccccc1)C(N)=O (stereo unspecified)
 : i | 0.57
CN1CCC(N(C)C(=O)Cc2ccccc2[N+](=O)[O-])CC1
 : i | 0.3
CC(=O)OC(Cn1ccnc1)c1ccccc1 (stereo unspecified)
 : i | 0.46
COc1ccc(NC(=O)c2cc(S(=O)(=O)N(Cc3ccccc3)c3ccccc3)ccc2Cl)cn1
 : i | 0.93
CC1SC(c2ccc(F)cc2)N(CCc2ccccc2)C1=O (stereo unspecified)
 : i | 0.76
O=C(NCc1ccc(F)cc1)C1CCCN(C(=O)NCc2ccccc2)C1 (stereo unspecified)
 : i | 1.8
CCOc1ccc(CCNC(=O)CCc2nnc3ccc(N4CCOCC4)nn23)cc1
 : i | 0.08
CCOc1ccc(/C=C2/C(=O)N(c3ccc(OC)cc3)C(=S)N2CC(=O)OC)cc1OCC
 : i | -0.1
Cc1ccc(NCCC(=O)c2ccc(Cl)cc2)cc1
 : i | 0.17
Cc1ccc(OCC(O)CN2CCOCC2)c(C)c1 (stereo unspecified)
 : i | 0.4
NC(=O)[C@@H]1CCCN1Cc1nc(Cc2ccccc2F)no1
 : i | -0.11
Cc1ccc(SC[C@H](C)CN2CC[C@H](C(C)(C)C)CCC2=O)cc1
 : i | 0.6
COC(=O)c1ccc2c(=O)n(-c3ccccc3)c(SCN3C(=O)c4ccccc4C3=O)nc2c1
 : i | 0.63
COc1ccc(NC(=O)Nc2ccccc2C)c(OC)c1
 : i | -1.6

Some of these compounds in order of number of heavy atoms, high to low:
Results follow in this order: KCNQ2 block | KCNQ2 block baseline
COc1cccc(C(=O)N(Cc2ccc3c(c2)OCO3)Cc2nc3ccccc3c(=O)[nH]2)c1
 : i | -0.85
COc1ccc(C(OC(=O)c2ccco2)C(=O)NC2CCCCC2)cc1OC (stereo unspecified)
 : i | -0.37
CCCn1c(=O)c(C(=O)Nc2cccc(C)n2)c(O)c2ccccc21
 : i | 0.15
CN1CCC(N(C)C(=O)Cc2ccccc2[N+](=O)[O-])CC1
 : i | 0.3

The listing picks up with the 4 entries that preceded the break.
Results follow in this order: KCNQ2 block | KCNQ2 block baseline
NC(=O)[C@@H]1CCCN1Cc1nc(Cc2ccccc2F)no1
 : i | -0.11
Cc1ccc(SC[C@H](C)CN2CC[C@H](C(C)(C)C)CCC2=O)cc1
 : i | 0.6
COC(=O)c1ccc2c(=O)n(-c3ccccc3)c(SCN3C(=O)c4ccccc4C3=O)nc2c1
 : i | 0.63
COc1ccc(NC(=O)Nc2ccccc2C)c(OC)c1
 : i | -1.6
Cc1cc(NC(=O)CSc2ncnc3c2cnn3-c2cccc(Cl)c2)no1
 : i | 2.1
COc1ccccc1N1CCN(CC(=O)Nc2ccc(C)c(F)c2)CC1
 : i | -0.15
Cc1ccccc1NC(=S)c1nc2ccccc2[nH]1
 : i | 0.05
O=C1OCCC1Sc1nnc(-c2ccc(Cl)cc2)n1Cc1ccccc1 (stereo unspecified)
 : i | 0.85
COc1ccccc1CNN
 : i | 0.72
Cc1ccc(NC(=O)C2=CCN(S(=O)(=O)c3ccc(F)cc3)CC2)c(C)c1
 : i | -1.6
COc1ccc(S(=O)(=O)Cc2ccc(C(=O)NCCCN(C)c3ccccc3)o2)cc1
 : i | 1
Cc1cc(C(C)(C)C)oc1C(=O)N(CC(=O)NC1CCCC1)c1cccc(C(F)(F)F)c1
 : i | 0.03
COc1ccc(NC(=O)C2CCC(C(C)(C)C)CC2)cc1S(=O)(=O)N1CCCCC1 (stereo unspecified)
 : i | 0.57
CCOC(=O)c1c(NC(=O)CSc2nnnn2C)sc(C(=O)N(C)C)c1C
 : i | 1.5
Cc1ccc(OCc2cc(C(=O)N3CCC(Oc4cccnc4)CC3)no2)cc1C
 : i | -1.6
Cc1cccc(-n2cc(CNCCc3nc(C)cc(C)n3)c(-c3cccc(F)c3)n2)c1
 : i | 0.15
COc1ccccc1CNC(=O)CCNS(=O)(=O)c1ccc2[nH]c(=O)oc2c1
 : i | 0.67
COc1cccc(C(=O)Nc2ccc3c(c2)C(=O)N(CC2CCCO2)C3=O)c1 (stereo unspecified)
 : i | 0.1
COc1ccc(C(=O)Nc2ccccc2)cc1S(=O)(=O)NCc1ccco1
 : i | -2
COC(=O)C1=C(C)OC(N)=C(C#N)C1c1cccnc1 (stereo unspecified)
 : i | -1.9
Cc1nn(-c2ccccc2)c(C)c1C(=O)OCc1ccc(C#N)cc1
 : i | -0.36
Cc1ccc(CONC(=O)c2ccc(OC(F)F)cc2)cc1
 : i | -0.67
CCOC(=O)C1(CCCc2ccccc2)CCN(C(=O)CCc2cnn(C)c2)CC1
 : i | -0.03
CCCCN=C(N)/C(C(=O)OCC)=C(\O)c1ccc(OC)cc1
 : i | 0.22
Cc1cccc(/C=N\NC(=O)c2sccc2-n2cccc2)c1
 : i | 0.15
CSc1ccc(CCNS(=O)(=O)c2csc(C(N)=O)c2)cc1
 : i | -0.35
O=C(/C=C/c1ccccc1)N(Cc1cccs1)C1CCS(=O)(=O)C1 (stereo unspecified)
 : i | 0.74
CCC(=O)NC(Cc1ccccc1)c1nc2ccccc2[nH]1 (stereo unspecified)
 : i | -1.4
CCOc1cc(/C=N/NC(=O)CCn2nc(C)cc2C)ccc1O
 : i | -0.09
CN(C)c1nc(NCc2ccccc2)nc(N/N=C/c2ccc(Cl)cc2Cl)n1
 : -8.8* | 0.47*
CC(=O)c1cccc(OCC(=O)N2CCN(c3ccc(C(F)(F)F)cn3)CC2)c1
 : i | 1
Cc1ccc(NC(=O)CN2C(=O)S/C(=C\c3ccc(C(=O)O)cc3)C2=O)cc1
 : i | -1.1
CCN(CC(=O)Nc1c(F)cccc1F)C(=O)CCSc1ccc(C)cc1
 : i | -1.1
COc1ccc(NC(=O)c2cccc(-n3cnnn3)c2)cc1
 : i | -0.22
COCCOC(=O)C1=C(C)OC(N)=C(C#N)C1c1cc2cccc(C)c2nc1Cl (stereo unspecified)
 : i | 0.17
CCOc1ccc(Br)cc1S(=O)(=O)NCc1ccncc1
 : i | 1.7
Cc1ccc(CNC(=O)c2cn(C)c(=O)c3c2c2ccccc2n3C)o1
 : i | -1.6
O=C(CC(C(=O)O)c1ccc(Cl)cc1)c1ccccc1 (stereo unspecified)
 : i | 0.94
CN1CCN(Cc2c(O)ccc3c(=O)c(Oc4ccccc4Cl)c(C(F)(F)F)oc23)CC1
 : i | -0.71
COc1cc(CNC2CCCC2)cc(Cl)c1OCc1ccc(F)cc1
 : i | 0.4
O=C(/C(=C(\[O-])c1ccccc1)[n+]1ccc2ccccc2c1)c1ccccc1
 : i | 0.01
COc1ccccc1N1CCN(C(=O)c2ccc(COc3cccc4c3OC(C)(C)C4)cc2)CC1
 : i | -0.07
O=C(CCN1C(=O)/C(=C/c2ccccc2)SC1=S)NCCc1ccc(O)cc1
 : i | 1.8
CC(C)Nc1oc(-c2cccc3ccccc23)nc1C#N
 : i | 0.8
O=C(Nc1ccc(Br)cc1)c1cccc(S(=O)(=O)Nc2ccccn2)c1
 : i | 0.05
O=C(NCc1ccc(-n2cccc2)cc1)c1cccc(F)c1
 : i | -0.67
O=S(=O)(c1ccccc1)N1CCN=C1SCc1c(F)cccc1Cl
 : -6.3* | -0.3*
OC(COCc1cccs1)CN1CCN(c2cccc(Cl)c2)CC1 (stereo unspecified)
 : i | 1.3
COc1ccc(S(=O)(=O)N2CCC(C(=O)NCc3ccccn3)CC2)cc1Cl
 : i | -0.13
Cc1ccc(CSCc2nnc(SCC(=O)N3CCN(c4ccccc4)CC3)n2C)cc1
 : i | 1.3
Cc1c(Cl)c(C(=O)NNC(=S)Nc2ccc(F)cc2)nn1C
 : i | -1.3
COc1cc(C(=O)OCC(=O)NC2CCCCCC2)ccc1OCC(C)C
 : i | 0.79
Cn1c(=O)n(CCCOc2ccc(Cl)cc2)c2ccccc21
 : i | 1.5
O=C(CCNc1ccc(Cc2ccncc2)cc1)c1cccc([N+](=O)[O-])c1
 : i | 0.25
COc1cc(/C=N/NC(=O)c2nonc2N)cc(OC)c1OC
 : i | -0.22
Cc1cc(Cl)ccc1OCC(=O)N/N=C1\CC2C=CCC12 (stereo unspecified)
 : i | -0.06
Cc1cc(C(=O)NCC(=O)OCC(=O)Nc2ccc(OC(F)F)cc2)ccc1[N+](=O)[O-]
 : i | -0.64
O=c1c2ccccc2oc2cc(NCCCn3ccnc3)ccc12
 : i | 5.9
c1ccc(SCCOCCN2CCOCC2)cc1
 : i | 0.86
CCCCN1CCc2c([nH]c3ccc(C)cc23)C1=O
 : i | 1.4
Cc1ccc2nc(C3CCCN3Cc3nc(CCC(C)C)no3)[nH]c2c1 (stereo unspecified)
 : i | -1.1
COC(=O)C1Cc2c([nH]c3ccccc23)C2(CCN(Cc3ccccc3)CC2)N1 (stereo unspecified)
 : i | -0.05
Cc1cc(=O)oc(C)c1C(=O)OCC(=O)c1ccc(Br)cc1
 : i | 0.41
O=S(=O)(c1ccccc1)N1CCN(c2ccccc2)CC1
 : i | 0.06

Single records (already shown). Screens in order: KCNQ2 block	KCNQ2 block baseline
Results for CCCCN1CCc2c([nH]c3ccc(C)cc23)C1=O → i	1.4
Results for O=C(NCc1ccc(-n2cccc2)cc1)c1cccc(F)c1 → i	-0.67
Results for COc1ccc(S(=O)(=O)N2CCC(C(=O)NCc3ccccn3)CC2)cc1Cl → i	-0.13

Next compounds.
Results follow in this order: KCNQ2 block | KCNQ2 block baseline
O=C(COC(=O)[C@H](Cc1ccccc1)NC(=O)c1ccco1)NC(c1ccccc1)c1ccccc1
 : i | 0.37
Cc1cc([N+](=O)[O-])nn1CC(=O)Nc1cc(F)ccc1F
 : i | 1.1
Cc1ccc(-n2cc(CN3CCNC(=O)CC3)c(-c3ccc(F)cc3)n2)cc1
 : i | 0.36
CC(C)C(=O)Nc1ccccc1-c1nc2ccccc2[nH]c1=O
 : i | 0.68
O=C(O)c1cccc(Nc2ccncc2[N+](=O)[O-])c1
 : i | 0.23
O=C(CN(CC1CCCO1)C(=O)CNS(=O)(=O)c1ccc(F)cc1)NCC1CCCO1 (stereo unspecified)
 : i | -1.1
CCOc1ccc(N/C(N)=N/c2nc(CSc3nnnn3-c3ccccc3)cc(=O)[nH]2)cc1
 : i | 1.6
COc1ccc(/C=C2\SC(=O)N(CC(=O)NNC(=O)c3ccccc3O)C2=O)cc1
 : i | -0.21
O=C(O)c1ccc(S(=O)(=O)c2ccccc2C(=O)O)c([N+](=O)[O-])c1
 : i | -0.08
CCN(CC(=O)Nc1ccc2c(c1)OCCO2)Cc1cc(=O)oc2cc(C)c(C)cc12
 : i | -0.84
O=C(NCc1ccc(F)cc1)C(c1ccc(Cl)cc1)N(C(=O)c1csnn1)C1CC1 (stereo unspecified)
 : i | -1.3
COc1ccc(OC2C(=O)N(c3cc(C)ccc3C)C2c2ccc(OC)c(OC)c2)cc1 (stereo unspecified)
 : i | -0.01
O=C(NCCN1CCOCC1)c1ccc(CS(=O)(=O)c2ccc(Br)cc2)o1
 : i | -0.03
COc1ccc(C(NC(=O)c2c(F)c(F)c(F)c(F)c2F)c2ccccc2)cc1 (stereo unspecified)
 : i | -1.6
O=C(NCc1cccnc1)c1ccc(CN2CCc3ccccc3C2)cc1
 : i | -0.2
COc1cc(/C=N/n2c(C3CCCCC3)n[nH]c2=S)cc(Br)c1O
 : i | 0.42
COc1ccc(C(=O)Nc2ccc(S(=O)(=O)N3CCCCC3C)cc2)c(OC)c1OC (stereo unspecified)
 : i | 0.15
CC1=C(C#N)C(c2cccnc2)C2=C(N1)c1ccccc1C2=O (stereo unspecified)
 : i | 1.1
CCOC(=O)C1=C(C)NC(C)=C(C(=O)OCC)C1C(=O)OCC(=O)N1CCc2ccccc21
 : i | -0.79
CN(c1ccc(OCC(=O)OCC(=O)Nc2cccc([N+](=O)[O-])c2)cc1)S(=O)(=O)c1ccc(F)cc1
 : i | 0.98
Cn1c(CCN2CCOCC2)nc2cc(NC(=O)COc3ccc(Cl)cc3)ccc21
 : i | -0.06
CCc1ccc(Nc2ncnc3nc[nH]c23)cc1
 : i | 1.5
COc1cc(C(C)=O)ccc1Oc1ncnc2c1cnn2-c1cccc(Cl)c1
 : i | 0.73
COc1ccc(OC)c(NC(=O)Cn2c(C)nc3ccccc3c2=O)c1
 : i | -1.2
